Bioassay records (PubChem)
NPYLR7 ag = agonists of mosquito NPYLR7 receptor, primary screen, cell-based, Aedes aegypti, calcium fluorescence, mosquito biting behavior | HEK293T NPYLR7/Galpha15, GCaMP6s calcium fluorescence | activation, % at 10 µM | 270,000 tested, 0.15% active | AID 1259423, 2018; in the data active means activation above about 40%;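 further: 0% = vehicle and 100% = reference agonist at the receptor; some compounds past the cut are filed as inactive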
NPYLR7 ag max-min = also measured in NPYLR7 ag; calls as there; activation, %; measured here: Max-Min RFU normalised activation; some inactives read as strong as hits;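 span of the calcium signal over five minutes; 0% = vehicle and 100% = native peptide agonist; compound fluorescence can raise it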
The depositor's hits bear a star; & = joins results of further samples. The list is partial. The share of hits here may be higher or lower than overall.

SMILES	NPYLR7 ag	NPYLR7 ag max-min
CC1(C)O[C@@H]2CC3C4CCC5=CC(=O)C=C[C@]5(C)[C@@]4(F)[C@@H](O)C[C@]3(C)[C@]2(C(=O)CO)O1 (stereo partly drawn)	-9	-14
COCCn1cc(C(=O)NCC2(c3ccccc3)CCCC2)c(=O)c(C(=O)N2CCCCC2)c1	20	15
COc1cccc(OC)c1OC1CCNCC1	-15	-17
Cc1cc(C)c2sc(NC(=O)c3ccc([N+](=O)[O-])o3)nc2n1	-6	-2
C=C(C)[C@@H]1CC=C(CN2CCC(C3(Cc4cccc(F)c4)NC(=O)N(CCOC)C3=O)CC2)CC1 (stereo partly drawn)	1	0
COc1ccc(-c2coc3cc(O)ccc3c2=O)cc1	-10&-6	-21&-8
CC(=O)c1cccc(CN2CC[C@@H](N3CCN(c4ccccc4F)CC3)[C@H](O)C2)c1	18	8
CC(=O)Nc1cccc(C(=O)N2CCN(S(=O)(=O)c3cccc(Br)c3)CC2)c1	-2	-2
NC(=O)C1CCCN(CCCn2cnc(-c3ccccc3)c2-c2ccsc2)C1 (stereo not drawn)	7	6
O=c1oc2cc(O)ccc2c2c1CCCC2	0	6
O=C1CN(C(=S)Nc2c(F)cc(F)cc2F)CC2c3cc(Cl)ccc3CCN12 (stereo not drawn)	-1	13
O=[N+]([O-])c1ccc(OC2=NS(=O)(=O)c3cc([N+](=O)[O-])ccc32)cc1	9	6
CCC1SC(c2cc(OC)ccc2OC)N(CCCN(C)C(=O)NC(C)C)C1=O (stereo not drawn)	7	-1
CN1CCN(C(=O)Cn2nnnc2CN2CCOCC2)CC1c1ccccc1 (stereo not drawn)	-2&0	-6&-1
COc1ccc(C(=O)N2c3ccc(C)cc3C3CN(C)CCC32)cc1S(=O)(=O)NC1CCCC1 (stereo not drawn)	-1	2
CCOC(=O)c1nc2cc(C)c(C)cc2nc1N1CCN(C(=O)C(=O)OC)CC1	8	3
CC(C)(C)c1nnc(Sc2ccc3nnc(C(F)(F)F)n3n2)o1	2	-1
O=C(CC1COCCN1)N1CCN(c2nnc(C(F)(F)F)s2)CC1 (stereo not drawn)	4	4
O=C(c1ccc2nc(Cc3ccccc3F)oc2c1)N1CC[C@H](O)C1	-3	-6
COc1ccc(-c2csc(-n3[nH]c(C)c(N=Nc4ccc([N+](=O)[O-])cc4Cl)c3=O)n2)cc1	-6	-10
CC1(C)CC(NC(=S)NCc2ccc3c(c2)OCO3)CC(C)(C)N1	2	4
CC(c1ccccc1)N(C)C(=O)c1cc(Cl)ccn1 (stereo not drawn)	11	5
CCn1nc(C(=O)N2CCCCCC2)c2c1CCC(NCCc1ccncc1)C2 (stereo not drawn)	18	3
COC(=O)C(=O)N1CCN(c2nc3ccccc3nc2-c2ccccc2)CC1	4	-2
Cc1noc(C)c1CNC(C)CCn1cccn1 (stereo not drawn)	2	0
CN(CC(=O)NC(C)(C#N)C1CC1)Cc1nnc(C2CC2)n1C (stereo not drawn)	4	1
Cc1nn(C)c(C)c1C(C)C(=O)Nc1cc(C#N)cn1C(C)(C)C (stereo not drawn)	6	3
CN=C1NS(=O)(=O)C(c2ccc(C)cc2)=C1C	3	2
CCc1c(C)nc(-n2nc(C)cc2C)n(CC(=O)NC(C)C)c1=O	1	-2
CCC(C)N(Cc1cccn1Cc1cccc(OC)c1)C(=O)CN(CCC(C)C)C(=O)c1ccc(Cl)cc1 (stereo not drawn)	-1	5

Shown with values under each structure: entries from further up
Results follow in this order: NPYLR7 ag | NPYLR7 ag max-min
Cc1noc(C)c1CNC(C)CCn1cccn1 (stereo not drawn)
    2 | 0
CN(CC(=O)NC(C)(C#N)C1CC1)Cc1nnc(C2CC2)n1C (stereo not drawn)
    4 | 1
Cc1nn(C)c(C)c1C(C)C(=O)Nc1cc(C#N)cn1C(C)(C)C (stereo not drawn)
    6 | 3
CN=C1NS(=O)(=O)C(c2ccc(C)cc2)=C1C
    3 | 2

Part of the list above, with two lines to a compound:
Under each structure: NPYLR7 ag | NPYLR7 ag max-min
Cc1cc(C)c2sc(NC(=O)c3ccc([N+](=O)[O-])o3)nc2n1
 : -6 | -2
C=C(C)[C@@H]1CC=C(CN2CCC(C3(Cc4cccc(F)c4)NC(=O)N(CCOC)C3=O)CC2)CC1 (stereo partly drawn)
 : 1 | 0
COc1ccc(-c2coc3cc(O)ccc3c2=O)cc1
 : -10&-6 | -21&-8
CC(=O)c1cccc(CN2CC[C@@H](N3CCN(c4ccccc4F)CC3)[C@H](O)C2)c1
 : 18 | 8
CC(=O)Nc1cccc(C(=O)N2CCN(S(=O)(=O)c3cccc(Br)c3)CC2)c1
 : -2 | -2
NC(=O)C1CCCN(CCCn2cnc(-c3ccccc3)c2-c2ccsc2)C1 (stereo not drawn)
 : 7 | 6
O=c1oc2cc(O)ccc2c2c1CCCC2
 : 0 | 6
O=C1CN(C(=S)Nc2c(F)cc(F)cc2F)CC2c3cc(Cl)ccc3CCN12 (stereo not drawn)
 : -1 | 13
O=[N+]([O-])c1ccc(OC2=NS(=O)(=O)c3cc([N+](=O)[O-])ccc32)cc1
 : 9 | 6
CCC1SC(c2cc(OC)ccc2OC)N(CCCN(C)C(=O)NC(C)C)C1=O (stereo not drawn)
 : 7 | -1
CN1CCN(C(=O)Cn2nnnc2CN2CCOCC2)CC1c1ccccc1 (stereo not drawn)
 : -2&0 | -6&-1
COc1ccc(C(=O)N2c3ccc(C)cc3C3CN(C)CCC32)cc1S(=O)(=O)NC1CCCC1 (stereo not drawn)
 : -1 | 2
CCOC(=O)c1nc2cc(C)c(C)cc2nc1N1CCN(C(=O)C(=O)OC)CC1
 : 8 | 3
CC(C)(C)c1nnc(Sc2ccc3nnc(C(F)(F)F)n3n2)o1
 : 2 | -1
O=C(CC1COCCN1)N1CCN(c2nnc(C(F)(F)F)s2)CC1 (stereo not drawn)
 : 4 | 4
O=C(c1ccc2nc(Cc3ccccc3F)oc2c1)N1CC[C@H](O)C1
 : -3 | -6
COc1ccc(-c2csc(-n3[nH]c(C)c(N=Nc4ccc([N+](=O)[O-])cc4Cl)c3=O)n2)cc1
 : -6 | -10
CC1(C)CC(NC(=S)NCc2ccc3c(c2)OCO3)CC(C)(C)N1
 : 2 | 4
CC(c1ccccc1)N(C)C(=O)c1cc(Cl)ccn1 (stereo not drawn)
 : 11 | 5
CCn1nc(C(=O)N2CCCCCC2)c2c1CCC(NCCc1ccncc1)C2 (stereo not drawn)
 : 18 | 3
COC(=O)C(=O)N1CCN(c2nc3ccccc3nc2-c2ccccc2)CC1
 : 4 | -2
Cc1noc(C)c1CNC(C)CCn1cccn1 (stereo not drawn)
 : 2 | 0
CN(CC(=O)NC(C)(C#N)C1CC1)Cc1nnc(C2CC2)n1C (stereo not drawn)
 : 4 | 1
Cc1nn(C)c(C)c1C(C)C(=O)Nc1cc(C#N)cn1C(C)(C)C (stereo not drawn)
 : 6 | 3
CN=C1NS(=O)(=O)C(c2ccc(C)cc2)=C1C
 : 3 | 2
CCc1c(C)nc(-n2nc(C)cc2C)n(CC(=O)NC(C)C)c1=O
 : 1 | -2

Going on with the list.
SMILES	NPYLR7 ag	NPYLR7 ag max-min
CCCCCCCCC(=O)Nc1c(-c2ccc(C(F)(F)F)cc2)nc2ccccn12	0	7
O=C(NCC1CCCCC1)C(=O)c1ccc(C2CCCCC2)cc1	-5	-12
C=CCOCC(O)CN(Cc1nc2sc(C(C)C)cc2c(=O)[nH]1)Cc1ccco1 (stereo not drawn)	15	13
COc1ccccc1CN1CCn2nc(C(=O)NCc3cccc(C(F)(F)F)c3)cc2C1=O	21	20
O=C1CCCC1Sc1nc(C2CC2)n(-c2ccccc2)n1 (stereo not drawn)	1	0
FN(F)C(c1ccccc1)(c1ccccc1)c1ccccc1	-16	-18
CCOc1ccc(-c2nc(CN3N=NC4C(=O)N(c5ccc(OC)cc5)C(=O)C43)c(C)o2)cc1 (stereo not drawn)	17	13
CC1CCCN(c2nc3c(c(=O)[nH]c(=O)n3C)n2CCCSc2ncccn2)C1 (stereo not drawn)	4	14
O=C(c1cc(F)ccc1O)C1CCNCC1	5	3
COCCN(CC(N)=O)C(=O)c1ccc(Cl)cc1F	2	8
O=C(CN1CCC(Oc2ccccn2)CC1)Nc1cccc([N+](=O)[O-])c1	9	8
O=C1NCCN1c1ncc([N+](=O)[O-])s1	-4	-7
CCOc1cc(CN(C(=O)Nc2ccccc2F)C2CC2)ccc1OC(F)F	-1	0
Cc1noc(-c2ccnc(NCc3ccc(C#N)cc3)c2)n1	0	-3
NC(=O)C1(N2CCCCC2)CCN(Cc2nc(Cc3ccccc3)no2)CC1	16	3
COC(=O)C1CCCN1CC(=O)N(C)C(C)c1cccs1 (stereo not drawn)	1	0
CCc1ccc(/C=N\NC(=O)CSc2nnc(-c3ccc(OC)c(OC)c3)n2-c2ccccc2)cc1	-5	-9
CCN(CC)C(=O)c1cc(NC(=O)c2cccc3ccccc23)ccc1N1CCCC1	4	8
Cc1cccc(-c2cccc(NC(=O)C3CCCN(C(=O)CCc4cnccn4)C3)c2)c1 (stereo not drawn)	1	-3
CN(CCCn1cccn1)C(=O)c1cc(Cn2ccc3ccccc32)[nH]n1	25	13
Cc1ccc(-n2ncc3c(=O)n(NC(=O)c4ccc5c(c4)OCO5)cnc32)cc1	4	0
COCCNCc1nc2sc(C(C)C)cc2c(=O)[nH]1	4	8
Cc1ccc(N2CC(NC(=O)N3CCN(C)CC3)CC2=O)cc1C (stereo not drawn)	12	10
COc1ccc(C(=O)N2CCC(C(NC(=O)CC(C)C)C(=O)NCc3ccc(F)cc3)CC2)cc1 (stereo not drawn)	7	9
CCOc1ccc2c(=O)c(-c3ccccc3OC)coc2c1	19	5
NC(Cc1ccccc1)c1nnc(SCc2ccc(F)cc2)n1-c1ccc([N+](=O)[O-])cc1 (stereo not drawn)	-2	-12
CNc1cccc(-c2cnn(C)c2)n1	4	4
COC(=O)[C@H]1C[C@@H](O)CCN1S(=O)(=O)c1cc(Cl)ccc1OC	-4	-7
C/C(=C\c1ccco1)CN1CCCC1c1nc(C(C)C)no1 (stereo not drawn)	16	11
CN1CCN2CCN(Cc3ccc(C#CCO)cc3)CC2C1 (stereo not drawn)	1&3	0&-1
COCCn1c(C)c(C)n2c3c(=O)n(Cc4cc(C)ccc4C)c(=O)n(C)c3nc12	2	1
CCOCCOc1nc(-c2ccccc2C)n(-c2ccc(NC(=O)COc3ccc(Cl)cc3)cc2)n1	2	10
CCc1ccccc1OCCN(C)C(=O)C1CCS(=O)(=O)CC1	15	1
O=C1c2ccccc2C(=O)c2c1cccc2-c1cccc2c1C(=O)c1ccccc1C2=O	-13	-12
CN1C(=O)NC(c2ccccc2Cl)C2=C1CN(CC(=O)NCCc1cccs1)C2=O (stereo not drawn)	0	7
CCOC(=O)c1nn(-c2ccccc2Cl)c(=O)cc1OS(=O)(=O)c1ccc(Cl)cc1	13	16
CCOc1cc2nc(-c3ccc(F)cc3F)oc(=O)c2cc1OCC	-3	-4
CCOc1cc(C(=O)NCCN2CC(C)OC(C)C2)cc(-c2ccccc2)c1OC (stereo not drawn)	2	-1
COc1ccc(Cl)cc1C(=O)Nc1cc(-c2cccs2)nn1-c1nc(C(C)C)cc(=O)[nH]1	4	4
OCC1CCCN(Cc2ncc(-c3ccc(Cl)cc3)o2)C1 (stereo not drawn)	2	1
O=C(CSc1nncn1CCc1ccccn1)N1CCCCCC1	-1	0
COc1ccc(S(=O)(=O)N2CCC(Cc3ccccc3)CC2)cc1N1CCN(S(=O)(=O)c2c(C)cc(C)cc2C)CC1	19	13
CCOC(=O)c1cc(-c2ccc(N3CCN(C(=O)c4cc(Cl)nc(OC)c4)CC3)cc2)n(-c2cccc(F)c2)n1	26	18
CCOP(=O)(OCC)C(NC(=O)c1cccs1)C(F)(F)F (stereo not drawn)	-3	-6
NC(=O)CSc1ccc(NC(=O)c2ccccc2)nn1	1	4
COc1ccc2cc(CNC(=O)CCc3nc(-c4cccs4)no3)ccc2c1	4	6
CCOC(=O)C1(Cc2ccccc2C)CCCN(S(=O)(=O)c2c(C)nn(C)c2C)C1 (stereo not drawn)	4	1
Cc1cc(N)n(-c2nc3c(cnn3-c3ccc(C)c(C)c3)c(=O)[nH]2)n1	-4	-5
c1ccc(CNc2cc(-c3nccc4occc34)c3cc[nH]c3n2)nc1	15	10
CN1CCC(NC(=O)C2(N(C)CCc3ccccc3)Cc3ccccc3C2)C1=O (stereo not drawn)	7	4
COc1ccc(OC)c(C2NC(=O)N(C)C(C)=C2C(=O)OCc2ccccc2)c1 (stereo not drawn)	-3	-8
O=C(O)CNC(=O)CNC(=O)c1ccco1	7	10
COc1ccc(/C=C/CN2CCn3c(nnc3C(=O)NC3CCCCC3)C2)cc1	8	3
Cn1c2c(c(=O)c3ccccc31)C[C@@H](O)C(C)(C)O2	1	-1
CCN1CCN(S(=O)(=O)c2ccc(Cl)c(Cl)c2)CC1	9	3
Cc1ccc2c(c1)c(C)c(C)n2CC(O)Cn1nc(C)c(Br)c1C (stereo not drawn)	-10	-17
CC(=O)Nc1ccc(-c2nccn2CCc2cccc(F)c2)cc1	-3	-3
Cc1ncc(Cl)c(C(=O)Nc2c(F)cccc2NC2CC2)n1	-1	4
CC(Cn1ccc2ccccc21)NC1CCN(c2ccc(NC(=O)c3cnccn3)cc2)CC1 (stereo not drawn)	13	3
C=CCSc1nc2c(c(=O)[nH]1)C(c1ccc(Cl)cc1)C(C(=O)OC)=C(C)N2 (stereo not drawn)	-5	-9
CC1(O)N(Cc2ccco2)C(=O)OC12CCCCC2 (stereo not drawn)	0	-3
CCOC(=O)CCNC(=O)NCc1nnnn1-c1ccc(OC)cc1	4	2
